Bioassay records: PubChem, several laboratories
Vif TR-FRET: inhibitors of Vif binding to APOBEC3G peptide, primary screen, biochemical, TR-FRET, GST-Vif 1-94, biotin-A3G peptide, dose response retest (AID 1117319) | TR-FRET GST-Vif / biotin-A3G peptide binding; higher % means a stronger effect; test concentration not given here; strong numbers were not always called active | inhibition, %; hits with a dose series show IC50 in µM | hit rate 0.57% among 260,000;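 active = above the screen mean plus three standard deviations and confirmed in dose response; inconclusive = results disagree or hit not tested in dose response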;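 also: Vif residues 1-94 fused to GST binding biotinylated APOBEC3G peptide 110-148; 0% = full assay without inhibitor and 100% = GST in place of GST-Vif; retest series ran down from 100 µM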
LANA-H2A inh: blocks KSHV LANA binding to histone H2A/H2B; cell-free LANA-H2A/H2B peptide, fluorescence polarization; Q9QR71; AID 2629; hit rate 0.6% among 320,000; inhibition, % (no concentration beside the values); in the data active = inhibition mostly above about 10%, no sharp cut-off; inactive = mostly below about 6.7%;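 also: stock transfer was 7.5 nL into about 10 µL; 0% = median of vehicle wells and 100% = median of positive control wells; one replicate is shown; the record names a cut of 25% in any replicate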
HNF4A DNA FP: change in binding of human HNF4 alpha to DNA; P41235; HNF4a-FITC DNA binding, fluorescence polarization, 1 h; activity change, % at 10 µM; hit rate 0.3% among 360,000; in the data active = activity change above about 30%, passing the limit was not always enough;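 also: controls were the assay level and a saturating level of protein; the project sought stronger binding though the title names inhibitors; some compounds called inactive have numbers as strong as hits; positive values seem to mean higher polarization but the record does not say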
Target sequence (P41235 whole entry, looked up): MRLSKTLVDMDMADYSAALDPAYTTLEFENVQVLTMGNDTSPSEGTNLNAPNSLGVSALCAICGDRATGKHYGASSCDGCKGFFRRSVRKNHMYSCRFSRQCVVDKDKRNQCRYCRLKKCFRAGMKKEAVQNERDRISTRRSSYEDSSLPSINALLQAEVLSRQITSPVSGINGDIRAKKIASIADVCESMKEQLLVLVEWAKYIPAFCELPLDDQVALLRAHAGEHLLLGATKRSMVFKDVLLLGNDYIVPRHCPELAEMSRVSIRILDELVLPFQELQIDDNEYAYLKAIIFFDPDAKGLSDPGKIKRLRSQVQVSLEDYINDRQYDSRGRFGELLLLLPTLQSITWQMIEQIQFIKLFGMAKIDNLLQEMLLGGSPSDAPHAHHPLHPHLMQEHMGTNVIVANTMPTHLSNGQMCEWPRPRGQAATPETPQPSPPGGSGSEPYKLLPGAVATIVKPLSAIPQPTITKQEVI
RanGTP-Impb inh: inhibitors of RanGTP-importin-beta interaction, primary screen, biochemical, FRET, CFP-Ran, YFP-importin-beta, homogeneous; hit rate 1.1% among 300,000; inhibition, % (test concentration not listed); cell-free CFP-Ran/YFP-importin-beta FRET ratio; AID 2216;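 active = most replicates above 15%; inconclusive = exactly half above 15%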;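 also: 0% = DMSO wells and 100% = Ran loaded with GDP instead of GTP; wells of about 40 µL received 100 nL stock; the first replicate is given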
Beta2AR agonist: agonists of human beta-2 adrenergic receptor inducing internalization. P07550. Am2.2-beta2AR cells, FAP receptor internalization, flow cytometry; reference of the scale not given here. response, % (concentration not given with the values). hit rate 0.43% among 340,000. AID 504454;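 active = response above a set limit, near 3 SD of response in nonfluorescent compounds, cut at about 42% in these data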;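 also: stock transfer was 100 nL into about 11 µL; a reference agonist was the positive control; negative values mostly stem from fluorescent compounds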
Target sequence (P07550 whole entry, looked up): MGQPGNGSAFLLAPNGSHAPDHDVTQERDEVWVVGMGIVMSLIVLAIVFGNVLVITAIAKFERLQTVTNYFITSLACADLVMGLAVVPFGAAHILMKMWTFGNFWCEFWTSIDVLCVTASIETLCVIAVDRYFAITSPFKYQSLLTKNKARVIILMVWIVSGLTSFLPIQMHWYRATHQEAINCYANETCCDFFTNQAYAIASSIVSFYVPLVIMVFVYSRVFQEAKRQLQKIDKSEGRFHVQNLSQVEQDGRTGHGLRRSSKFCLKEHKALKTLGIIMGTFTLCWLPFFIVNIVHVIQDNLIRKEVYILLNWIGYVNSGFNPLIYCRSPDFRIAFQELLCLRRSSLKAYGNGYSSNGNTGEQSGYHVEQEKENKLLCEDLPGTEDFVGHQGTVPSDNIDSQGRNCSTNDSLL
ALR H2O2 inh: inhibitors of human sulfhydryl oxidase ALR; P55789; purified ALR, DTT oxidation, H2O2 HRP-luminol luminescence; inhibition, % (test concentration not listed); hit rate 3.8% among 290,000; AID 485317;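 active = mean and each replicate at 75% or more; inconclusive = only one of the two met; inactive = neither met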;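 also: stock transfer was 7.5 nL into about 7.5 µL; 0% = neutral wells and 100% = wells with inactivated enzyme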
Target sequence (P55789 whole entry, looked up): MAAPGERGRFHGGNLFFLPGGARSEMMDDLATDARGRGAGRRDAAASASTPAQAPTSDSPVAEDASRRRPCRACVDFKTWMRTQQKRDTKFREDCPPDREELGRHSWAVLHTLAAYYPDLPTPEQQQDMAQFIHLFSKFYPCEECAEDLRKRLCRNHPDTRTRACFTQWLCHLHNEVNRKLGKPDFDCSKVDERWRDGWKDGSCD
Calb FLC: C. albicans growth modulation with fluconazole; C. albicans CaCi-2 (fluconazole-resistant clinical isolate) + fluconazole, Alamar Blue growth, 48 h; growth inhibition, % (test concentration not listed); hit rate 0.57% among 300,000;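 active = most replicates above 75%; inconclusive = exactly half above 75%; inactive = most below 75%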;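 also: all wells also contain fluconazole at 8 µg/ml as a sub-toxic cotreatment; 0% = median of DMSO wells and 100% = median of geldanamycin control wells; wells of about 8 µL received 7.5 nL stock; the first replicate is given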
An asterisk follows results filed as active; ? = inconclusive; / = not tested or not shown.

no.	canonical_smiles	Vif TR-FRET	LANA-H2A inh	HNF4A DNA FP	RanGTP-Impb inh	Beta2AR agonist	ALR H2O2 inh	Calb FLC
1	O=C(OCc1cccc(F)c1)c1ccc2c(c1)-c1ccccc1C2=O	5%	0.3	-2.3	-1.0	-5	-3	40
2	O=C(COc1ccc(Cl)cc1)OCc1ccc(Cl)cc1	0%	/	-0.8	/	-7	/	/
3	OCC[C@H]1C[C@@H](O)[C@H](O)[C@]2(OCCc3ccccc32)O1	/	-4.6	-6.0	/	-7	/	/
4	COc1ccc(C2C(C(C)=O)=C(O)C(=O)N2c2nccs2)c(OC)c1 (configuration not stated)	15%	3.4	0.1	3.9	-2	6	-4
5	COc1cc(/C=N/N=C2/NC(=O)C(c3ccccc3)S2)ccc1O (configuration not stated)	>100µM*	2.2	-3.5	0.8	3	99*	17
6	CC(=O)N1CCN(CC(=O)O)CC1	-8%	7.9	/	1.1	/	-6	-10
7	CN1CCN(CCC(=O)N/N=C/c2cc([N+](=O)[O-])ccc2OC(F)F)CC1	-11%	6.9	-2.2	-1.6	1	-4	-20
8	COc1ccc(CC(=O)NC2=NCCS2)cc1	0%	-2.3	-2.8	2.7	-4	0	-3
9	CCN1CCCC1CNC(=O)c1ccc(Sc2ccccc2Cl)c([N+](=O)[O-])c1 (configuration not stated)	10%	4.1	2.7	1.7	4	-7	-13
10	CCOCCCNC(=O)c1cn(CC)c2ccc(S(=O)(=O)N3CCC(C)CC3)cc2c1=O	/	4.8	-0.1	0.4	-10	0	12
11	CC(=O)NNC(=O)c1ccncc1	5%	-0.2	6.2	1.9	11	-10	5
12	O=C(CC12CC3CC(CC(C3)C1)C2)NCO	-2%	3.7	4.6	0.3	-7	0	-1
13	CCn1c(C)cc2c(c1=O)C(c1ccc3c(c1)OCO3)C(C#N)=C(N)O2 (configuration not stated)	-9%	0.4	-0.5	2.7	7	0	37
14	COC(=O)c1cc(C(=O)c2cc(Cl)ccc2O)coc1=N	-6%	1.0	2.8	-2.6	21	5	1
15	Cn1cccc1Cc1nnc(SCC(=O)NCCc2ccccc2)n1C	-7%	3.5	18	-1.3	2	59	11
16	Cc1ccc2nc(SCC(=O)NCc3ccco3)c(C)cc2c1	/	-0.6	5.5	-4.4	8	98*	4
17	COc1ccc(N2CCN(C(=O)CCc3cc(OC)c(OC)c(OC)c3)CC2)cc1	-2%	-2.8	4.2	-1.4	0	61	/
18	CC(C)Cc1nc2sc3c(=O)[nH]cnc3c2c2c1CCC2	0%	2.8	-4.7	2.0	-7	6	38
19	CC1=C2C3OC(=O)C(C)C3CCC2(C)C=CC1=NO (configuration not stated)	-12%	/	0.8	/	0	/	/
20	CCCS(=O)c1nc(C)cc(C)c1S(C)(=O)=O (configuration not stated)	5%	3.1	0.0	-1.2	2	-5	-16
21	CC(=O)c1cnc2c(-c3ccccc3)cnn2c1C	12%	-0.2	-0.4	3.2	-20	/	1
22	CCCCCc1c(C)nc(N2CCOCC2)[nH]c1=O	30%	1.9	0.3	-1.8	-6	-13	6
23	O=C(CSc1nnc(C2COc3ccccc3O2)o1)N1CCCC1 (configuration not stated)	-2%	-1.4	-0.8	-0.7	-8	1	0
24	CCOc1ccc(CCNC(=O)c2cc3sccc3n2CC)cc1OCC	0%	-1.9	0.5	-3.0	10	-15	-6
25	CCNC(=O)NC(=O)COC(=O)CCCSc1nc2ccccc2[nH]1	1%	5.6	-2.2	0.4	6	-3	-4
26	COc1cc(C(=O)Nc2cccc(C)n2)ccc1OCC(=O)N1CCOCC1	-9%	-12	3.2	/	-4	-2	/
27	COc1ccc(-c2cc(Nc3ccccc3NC(=O)C(F)(F)F)n(CCC#N)n2)cc1	0%	/	0.1	-2.1	10	/	14
28	CC(C)(O)C1Cc2cc(/C=C/C(=O)O)c(O)cc2O1 (configuration not stated)	/	/	4.0	-2.6	3	/	7
29	NC(=O)C1CCN(Cc2nc3cc(Cl)ccc3c(=O)[nH]2)CC1	5%	0.9	1.7	3.5	-1	0	3
30	CCCC(=O)N1CCCC(C(=O)c2ccc(OC)c(OC)c2)C1 (configuration not stated)	/	0.2	-0.8	4.8	-4	/	1
31	CCn1c(=O)cc(OCC(=O)NCC2CCCO2)c2ccccc21 (configuration not stated)	-6%	0.3	3.9	7.1	-5	-5	-2
32	CCS(=O)(=O)N1CCN(S(=O)(=O)c2ccccc2[N+](=O)[O-])CC1	-11%	0.7	2.1	-0.7	-4	2	6
33	O=[N+]([O-])c1cccc(/C=N/NC2CCS(=O)(=O)C2)c1 (configuration not stated)	-1%	6.3	3.5	2.0	-19	-11	-2
34	CN1CCN(C(=S)c2ccc(-c3cc(Cl)ccc3Cl)o2)CC1	-13%	0.7	2.1	-1.4	-9	/	-55
35	CCOc1ccc(NC(=O)c2cc(SC)ccc2Cl)cc1	-7%	4.2	-4.2	0.3	-5	-14	-1
36	Cc1ccc(C)c2[nH]c(=O)c(CN(CC3CCCO3)C(=O)NC3CCCCC3)cc12 (configuration not stated)	8%	-0.6	1.3	-1.5	-4	1	11
37	N#Cc1sc2nc3c(c(-c4ccco4)c2c1N)CCCC3	16%	-4.0	-2.7	-4.3	6	-2	1
38	Cc1c(C(C)(C)O)[nH]c2ccc(C#N)cc12	/	1.8	2.4	-3.0	0	57	-9
39	CC(c1ccco1)N(C(=O)c1ccc(C(F)(F)F)cc1)c1ccccn1 (configuration not stated)	-13%	0.8	1.1	-1.0	3	2	4
40	Cc1cccc(N(C(=O)CNC(=O)c2cccs2)C(C(=O)NC2CCCC2)c2ccncc2)c1 (configuration not stated)	-7%	2.4	0.6	-0.8	-9	/	9
41	CCOCCCNC(=O)c1ccc(C2SCC(=O)N2Cc2ccccc2)cc1 (configuration not stated)	/	3.3	-2.1	-1.1	0	/	-6
42	Cc1ccc(NC(=O)c2ccco2)c(NC(=O)CN2C(=O)c3ccccc3C2=O)c1	-12%	-2.6	-2.4	3.7	-1	2	-8
43	NC(=O)c1cc2c3ccccc3ccn2c1-c1ccccc1	14%	7.9	-8.2	4.8	43*	3	3
44	O=C(O)COc1ccccc1C=NNC(=O)c1ccccc1NS(=O)(=O)c1cccs1	6%	5.4	1.1	/	-10	5	/
45	COc1c(Br)cc2c(C)c(C(=O)O)oc2c1Br	23%	-0.6	3.6	3.3	1	13	0
46	CCc1ccc(NC(=O)COc2coc(CN3CCc4ccccc4C3)cc2=O)cc1	6%	-1.5	0.2	4.0	2	/	8
47	Cc1ccc(S(=O)(=O)N2CCCCC2)c2nsnc12	/	3.3	3.0	4.1	-2	-2	-2
48	CC(C)NC(=O)NNC(=O)c1cc(COc2cc(Cl)cc(Cl)c2)on1	-7%	-6.2	-4.2	-0.4	-2	-20	-3
49	Cc1noc(NS(=O)(=O)c2ccc(NC(=O)CSc3nc4ccccc4s3)cc2)c1C	-2%	-0.7	2.0	3.0	-5	99*	32
50	O=C(NNS(=O)(=O)c1ccc(Cl)cc1)NC1CCCCC1	-2%	0.6	-1.7	4.5	-7	3	-6

Additional records follow.
no.	canonical_smiles	Vif TR-FRET	LANA-H2A inh	HNF4A DNA FP	RanGTP-Impb inh	Beta2AR agonist	ALR H2O2 inh	Calb FLC
51	C/C=C1\COC(C(=O)NCc2ccncc2)(C(F)(F)F)C=C1C=C1CCCCC1 (configuration not stated)	/	-2.2	-0.6	1.0	-2	24	2
52	CCC(=O)NC(c1ccccc1)c1c(OC(C)=O)ccc2ccccc12 (configuration not stated)	/	5.8	1.1	3.1	2	-6	27
53	Cc1cc(C)cc(C(=O)NCc2ccc3c(c2)OCO3)c1	-8%	-9.2	1.7	3.7	-3	-7	-54
54	COc1ccc(Cl)cc1NC(=O)C1CCCN(S(=O)(=O)c2cccc3nonc23)C1 (configuration not stated)	20%	/	-1.7	-2.9	3	/	1
55	CCCCN(C(=O)CSCC(=O)Nc1ccc(C)cc1)c1c(N)n(CC(C)C)c(=O)[nH]c1=O	-6%	6.0	2.5	/	0	-5	/
56	CCCNC(=O)CN1C(=O)NC2(CCCc3cc(OC)ccc32)C1=O (configuration not stated)	2%	0.1	0.4	-9.9	15	0	29
57	CCCN1CCc2[nH]c(=S)[nH]c(=O)c2C1	/	1.6	3.7	-0.3	8	11	-6
58	Cc1cccc(N2CCN(C(=O)COCc3cc(-c4ccc5c(c4)OCO5)on3)CC2)c1C	-2%	4.5	-1.0	2.7	0	-1	2
59	C[C@@H]1O[C@@H](O[C@H]2[C@H](O)[C@@H](O)[C@H](Oc3c(-c4ccc(O)c(O)c4)oc4cc(O)cc(O)c4c3=O)O[C@@H]2CO)[C@H](O)[C@H](O)[C@H]1O	/	6.0	-0.1	/	5	96*	/
60	NC(=O)CSc1nnc(COc2ccccc2)n1N	-2%	-2.6	2.1	1.3	-7	2	0
61	CCCCCCC(C)n1[nH]c(=O)cc1N (configuration not stated)	10%	2.4	2.4	1.9	-4	36	0
62	COc1cc2c(cc1OC)C(c1cccc([N+](=O)[O-])c1)N(C(=O)CCC(=O)O)CC2 (configuration not stated)	-1%	-1.3	-1.3	3.0	15	/	-1
63	C/C(=N\NC(=O)c1c([N+](=O)[O-])c(C)nn1C)c1ccc(NC(=O)c2ccc(C)o2)cc1	/	-1.1	-4.9	-0.2	2	-3	-15
64	Cc1ccc(NCC(=O)N/N=C\C(Br)=C\c2ccccc2)cc1	14%	-2.3	-3.3	-1.0	13	2	4
65	CCCn1c(N)c(N(CCOC)C(=O)c2cccc(F)c2)c(=O)[nH]c1=O	/	3.2	-0.5	4.6	-4	-4	1
66	COc1ccc(/C=N/NC(=O)c2ccco2)cc1Cn1nc(C)cc1C	/	0.0	6.5	-3.2	-16	77*	-6
67	COc1ccc(Br)c(C(=O)Nc2cccc(Cl)c2Cl)c1	28%	-1.8	-3.3	-3.3	3	/	-26
68	O=C(NCCc1ccc(Cl)cc1)C1(c2ccccc2)CC1	/	0.7	1.3	-1.7	-5	-1	0
69	COC(=O)c1cc(C(=O)OCC(=O)N2c3ccccc3NC(=O)C2(C)C)cc([N+](=O)[O-])c1	/	5.1	-2.8	1.5	2	-5	6
70	CC1CCN(C(=O)c2[nH]cnc2C(=O)N2CCN(C(=O)OC(C)(C)C)CC2)CC1	/	2.9	2.2	/	-2	-9	/
71	Cc1ccc(S(=O)(=O)N2CCCN(C)CC2)cc1	4%	-1.7	0.3	0.2	4	-6	5
72	Cc1ccn2c(=O)nc(SCC(=O)N3CCC(C)CC3)nc2c1	-2%	0.9	0.6	0.6	3	-4	-5
73	CCn1cc(CNCc2c(C(=O)N3CCCCC3)nc3c(C)cccn23)cn1	-6%	1.0	0.4	-2.9	4	-5	13
74	CC/C(=N\NC(=O)c1csc(C)c1C)c1cccs1	7%	-1.0	1.0	0.2	-1	-3	-7
75	CCOC(=O)C(CC)Sc1cc(C)nc2ccc(OC)cc12 (configuration not stated)	-12%	-0.4	1.3	0.8	20	/	2
76	O=C(Nc1nnc(C2=COCCO2)o1)c1cccc([N+](=O)[O-])c1	/	1.6	2.7	-2.3	4	?	1
77	Cc1cc(=O)[nH]c(SCC(=O)NCCOc2ccccc2)n1	0%	5.3	-0.6	1.7	4	-5	-5
78	CCCCCCCCOC(=O)CCn1[nH]c(=O)c2ccccc2c1=O	-1%	-1.0	1.1	-5.7	-7	40	-8
79	O=C(NCc1ccccc1)N1CCN(c2ccc(Cl)c(Cl)c2)CC1	5%	2.8	0.3	7.7	3	0	6
80	Cc1cc(=O)[nH]c(SCC(=O)NCc2ccc3c(c2)OCO3)n1	/	2.1	-4.1	3.6	7	-2	-3
81	CCN(CC)C(=O)Cn1cc(C(=O)C(=O)NCCc2c[nH]c3ccccc23)c2ccccc21	/	-0.8	1.3	4.9	5	-4	30
